# Screening data from PubChem BioAssay.
# PK Bst – alters activity of Bacillus stearothermophilus pyruvate kinase; partly purified Bacillus stearothermophilus pyruvate kinase, luminescence ATP production; ribose 5-phosphate activator present at AC10; Potency, µM; 51,000 tested, 1.2% active; AID 361; in the data active means potency below about 11 µM; inconclusive means mostly about 12 µM to 25 µM; inactive means weaker than that;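 the screen sought inhibitors and activators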;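 note: potency is the fitted concentration of half-maximal effect; scaled between full activation by ribose 5 phosphate and full inhibition by luteolin; about four in five hits inhibit and the cells do not say which; series up to 57 µM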
# TsaE inh – YjeE (TsaE) inhibition, E. coli. purified YjeE, fluorescence polarisation of a bound ADP probe. Potency, µM. 71,000 tested, 0.05% active; active = well fitted falling curve; inconclusive = weaker or top-dose-only fall, or a rising curve; inactive = flat or poorly fitted curve;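 note: top concentration of the series not given in the record; excess ADP was the control for the full effect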
#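 Purified YjeE (10 uM) with BODIPY Texas Red-labeled ADP probe (2 uM); compounds pin-transferred, 15 min at room temperature. Binding inhibition read as decreased fluorescence polarization; ADP titration as control.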
# * marks the source's active call; other numbers are inactive results; i = inactive; u = inconclusive; x = no result given. This is a subset, so the mix of outcomes need not match the whole.
SMILES,PK Bst,TsaE inh
Cn1c(Cn2nnc3ccccc32)nnc1SCC(=O)NCc1ccc2c(c1)OCO2,>57,i
COc1cccc(Nc2ncc3nc(-c4cn(C)c5ccccc45)c(=O)n(C[C@H]4CCCO4)c3n2)c1,x,i
CC(=O)Oc1cc2oc(=O)cc(C)c2cc1OC(C)=O,x,i
Cc1ccccc1C(OCC(O)CN1CCCCC1CCO)c1ccccc1 (configuration not stated),>57,i
COC(=O)c1ccc(NC(=O)CNC(=O)C2CCCCC2)c(C)c1,>57,i
Cc1ccc(NS(=O)(=O)c2ccc3c(c2)c(=O)n(C)c(=O)n3C)cc1F,>57,i
CC1CCCC(C)N1C(=O)c1cc(F)c(F)cc1Cl (configuration not stated),x,i
O=C(O)C1CCCN1S(=O)(=O)c1ccc2[nH]c(=O)c(=O)[nH]c2c1 (configuration not stated),>57,i
O=C(c1cccs1)N1CCC(c2ccccc2)C1 (configuration not stated),x,i
Cn1cccc1C(=O)N1CCC[C@@]2(CCN(Cc3cc(C(F)(F)F)cc(C(F)(F)F)c3)C2)C1,x,i
COc1ccc(OCc2nnc(SCC(=O)O)n2N)cc1,>57,i
Cc1nnc(SCc2ccccc2F)n1NCc1cccs1,>57,i

# Some of these compounds in order of molecular weight, ascending:
SMILES,PK Bst,TsaE inh
COC(=O)c1ccc(NC(=O)CNC(=O)C2CCCCC2)c(C)c1,>57,i
Cc1ccc(NS(=O)(=O)c2ccc3c(c2)c(=O)n(C)c(=O)n3C)cc1F,>57,i
Cc1ccccc1C(OCC(O)CN1CCCCC1CCO)c1ccccc1 (configuration not stated),>57,i

# (list continues)
SMILES,PK Bst,TsaE inh
Cn1c(=O)c2c(nc(SCC(=O)NC3CCCCC3)n2C)n(C)c1=O,x,i
COc1ccc(Cn2c(C)nc3c(c2=O)c2nc4ccccc4nc2n3Cc2ccco2)cc1,>57,i
Cc1cc(C(C)(C)CC(C)(C)C)ccc1OCCOCC[N+](C)(C)Cc1ccccc1,x,i
COc1ccccc1N1CCN(C(=O)CN(Cc2ccc(Cl)cc2)S(C)(=O)=O)CC1,>57,i
Cc1nn(CC(=O)Nc2ccc3c(c2)oc2ccccc23)c(=O)c2ccccc12,>57,i
Cc1cc2c(C)nc(Cc3ccccc3)nc2o1,>26,x
O=C(CSc1nc2cc(Cl)ccc2s1)N1CCN(C(=O)c2ccco2)CC1,>57,i
c1csc(CN2CCN(Cc3cccs3)C2c2cccs2)c1,>57,i
CCN(C(=O)c1cccc(F)c1)c1ccccc1C,>57,i
Cc1nc2c(cc(Oc3ccc(S(=O)(=O)N4CCOCC4)cn3)c3ccsc32)s1,>57,i
Cc1cccc(C)c1-n1nnnc1S(=O)(=O)Cc1ccccc1Cl,u,i
CCC1CCCCN1CCCNC(=O)c1ccc(CS(=O)(=O)Cc2ccccc2F)o1 (configuration not stated),>57,i
Cc1ccc(N(Cc2ccccc2)Cc2ccccc2)cc1,x,i
CCCCCC(=O)Nc1ccc2oc(-c3cccnc3)nc2c1,>57,i
CCOc1ccc(-n2cc(C(=O)NCc3ccco3)c3cc(OC)c(OC)cc3c2=O)cc1,>57,i
COC(=O)C1=C(C)NC(=O)NC1C1CC=CCC1 (configuration not stated),x,i
Cc1cccc(N2CCN(S(=O)(=O)c3ccc4c(c3)CCN4C(=O)CCC(=O)O)CC2)c1C,>57,i
COc1ccccc1C(=O)n1nc(-c2cccnc2)nc1N,x,i
CS(=O)(=O)N1CCN(C(=O)c2cc(-c3cccs3)nc3ccccc23)CC1,x,i
O=C(CCC(=O)c1cccs1)OCc1nc2ccccc2s1,>57,i
O=c1oc2ccccc2c(N2CCCCC2)c1CN1CCCCC1,>57,i
O=C(c1ccccc1Br)N1CCN(c2ccccc2)CC1,>57,i
O=C(NCCc1ccco1)c1nn(Cc2ccccc2)c(=O)c2ccccc12,>57,i
COc1ccccc1C(=O)N1CCN(S(=O)(=O)c2ccccc2)CC1,x,i

# Molecules above containing two or more sulfur atoms, in the order listed:
SMILES,PK Bst,TsaE inh
Cc1nnc(SCc2ccccc2F)n1NCc1cccs1,>57,i
O=C(CSc1nc2cc(Cl)ccc2s1)N1CCN(C(=O)c2ccco2)CC1,>57,i
c1csc(CN2CCN(Cc3cccs3)C2c2cccs2)c1,>57,i
Cc1nc2c(cc(Oc3ccc(S(=O)(=O)N4CCOCC4)cn3)c3ccsc32)s1,>57,i
CS(=O)(=O)N1CCN(C(=O)c2cc(-c3cccs3)nc3ccccc23)CC1,x,i
O=C(CCC(=O)c1cccs1)OCc1nc2ccccc2s1,>57,i

# Additional results follow:
SMILES,PK Bst,TsaE inh
CCOc1cc(N2CCOCC2)c(OCC)cc1NC(=O)CN1CCc2ccccc2C1,x,i
C[N+](C)(C)CCCCCC[N+](C)(C)C,x,i
CCN(CC)c1ccc(CNC23CN4CN(CN(C4)C2)C3)cc1,x,i
CCOC(=O)c1nn(-c2ccc3c(c2)OCO3)cc1O,x,i
CS(=O)(=O)N1CCc2cc(C(=O)N3CCOCC3)ccc21,>57,i
Cc1noc(C)c1C(=O)OCC(=O)NC(=O)NC12CC3CC(CC(C3)C1)C2,>57,i
Cc1onc(-c2ccccc2Cl)c1C(=O)N1CCN(C(=O)c2ccco2)CC1,x,i
O=C(c1ccc(F)cc1)C(CN1CCOCC1)c1ccccc1 (configuration not stated),>57,i
CCCCCCN=CC1=C(O)C(C(=O)OC)C(C)(C)CC1=O (configuration not stated),x,i
COC(=O)N1CCC2(CCCN(C(=O)Nc3ccccc3)C2)CC1,x,i
CCCn1c(N2CCN(C(=O)N3CCCCC3)CC2)nc2ccccc21,>57,i
COc1ccccc1N(CC(O)CN(c1ccccc1)S(C)(=O)=O)S(=O)(=O)c1ccccc1 (configuration not stated),>57,i
CC(=O)C(C)Oc1ccc2c3c(c(=O)oc2c1)CCCC3 (configuration not stated),x,i
CCCCn1c(C)cc2cc(O)ccc21,>11,x
O=C(CCS(=O)(=O)c1cccs1)N1CCCC1,>57,i
CCCSc1nnc(-c2ccccc2NC(=O)CC)c(=O)[nH]1,>57,i
CCOCCCNC(=O)CCCn1nc(C)n2c(cc3sccc32)c1=O,x,i
CCN1C(=O)C2(C(C#N)=C(N)Oc3cc(C)oc(=O)c32)c2ccccc21 (configuration not stated),>57,i
CNCCC(Oc1ccc(C(F)(F)F)cc1)c1ccccc1 (configuration not stated),>26,x
CC1CCN(S(=O)(=O)c2cccc(C(N)=O)c2)CC1,>57,i
CNC(=O)CSc1nnc(-c2cccnc2)n1CCc1ccccc1,>57,i
C=Cn1ccnc1P(=S)(c1ccc2c(c1)c1ccccc1n2CC)c1nccn1C=C,>57,i
CC1Cc2nc(SCC(=O)N3CCCC3)n(C)c(=O)c2S1 (configuration not stated),x,i
C=CCN(CC=C)C(=O)C1CC(=O)N(c2ccc(Br)cc2)C1 (configuration not stated),x,i
CCOC(=O)C1CCN(C(=O)C2CCN(S(=O)(=O)c3cc(Cl)ccc3Cl)CC2)CC1,>57,i
c1ccc(Cc2nnc3sc(-c4ccncc4)nn23)cc1,>57,i
CCN1C(=O)c2cccc3c(N)ccc1c23,x,i
CCN(CC)C(=O)Cc1cc(C(=O)O)c2ccccc2n1,>57,i
CN(C)C(=O)N1CCC(C(=O)NCC2CCCO2)CC1 (configuration not stated),>57,i
CCCN1C(=O)c2ccccc2NC1c1ccc(OC)cc1OC (configuration not stated),>57,i
COc1ccc(C(=O)N2CCC3(CC2)CCN(c2ccccc2)CC3)cc1,x,i
CCOC(=O)c1cc(CNC(=O)c2c(C)oc3c2CCCC3)c(C)o1,>57,i
c1ccc(-n2cnc3cc(NCc4ccccn4)ccc32)cc1,x,i
Cn1c(CCN2CCCCC2)nc2cc(NS(=O)(=O)c3ccc(Cl)cc3)ccc21,u,i
Cc1ccccc1NC(=O)C1CCCN(S(=O)(=O)c2c(C)noc2C)C1 (configuration not stated),>57,i
COc1ccc(-c2nnc(SCC(=O)N3CCCCC3)o2)cc1OC,x,i
COC(=O)CSc1nnc(CNS(=O)(=O)c2ccc(C)cc2)n1C,>57,i
O=C1CCCN1CCCNc1ncnc2c1[nH]c1ccc(Cl)cc12,i,i
CCOC(=O)CCc1c(C)nc2cc(-c3ccc(F)cc3)[nH]n2c1=O,x,i
O=C(CN1CCN(Cc2ccccc2F)C1=O)NCc1cccnc1,x,i
O=C(CSc1nc2ccccc2c(=O)n1C1CC1)NCc1ccccc1,>57,i
O=C(Oc1ccc2c(c1)OCO2)c1cccs1,>57,i
CO/N=C(\C(=O)N[C@@H]1C(=O)N2C(C(=O)O)=C(COC(C)=O)CS[C@@H]12)c1csc(N)n1,x,i
O=C1C2C3C=CC(C3)C2C(=O)N1CNc1ccc(O)cc1 (configuration not stated),i,i
COC(=O)N1[C@H](Cc2ccccc2)C=C[C@]1(C)C(=O)O,x,i
CC(=O)N1CCC(C(=O)Nc2nc(-c3ccccc3)ns2)CC1,>57,i
CN(C)S(=O)(=O)c1cccc2nsnc12,>57,i
CC(C)(C)NS(=O)(=O)c1ccc(OCC(=O)Nc2ccc3c(c2)OCCO3)cc1,>57,i

# Entries above containing a CF3 group:
SMILES,PK Bst,TsaE inh
Cn1cccc1C(=O)N1CCC[C@@]2(CCN(Cc3cc(C(F)(F)F)cc(C(F)(F)F)c3)C2)C1,x,i
CNCCC(Oc1ccc(C(F)(F)F)cc1)c1ccccc1 (configuration not stated),>26,x

# (cont.)
SMILES,PK Bst,TsaE inh
CC1CCCC(C)N1CC(O)COc1ccc(Cl)cc1 (configuration not stated),>57,i
CC(C)C(=O)Nc1ccc2c(c1)C(=O)N(CCC(=O)O)C2=O,x,i
Cn1c(Cn2c(=O)sc3ccccc32)nnc1SCC(=O)N1CCCC1,x,i
CCOC(=O)C1CCN(C(=O)c2ccco2)CC1,>57,i
Cc1nnc(SCc2nc3ccccc3s2)n1-c1ccccc1,x,i
COc1cccc(C2C(C(=O)c3cccs3)=C(O)C(=O)N2c2cc(C)on2)c1 (configuration not stated),>26,x
CCn1c(N)c(C(=O)NCC2CCCO2)sc1=S (configuration not stated),>57,i
COc1ccc(-c2cn3cccnc3n2)cc1NC(=O)c1ccc(Br)o1,>57,i
CC1=NC(C(F)(F)F)(C(F)(F)F)C2=C(CC(C)(C)CC2=O)N1Cc1ccco1,>57,i
O=S(=O)(c1ccc(OCC(O)CNCc2ccco2)c(Cl)c1)N1CCOCC1 (configuration not stated),>57,i
CC1=N[C@@](C)(COC(=O)[C@]2(C)N[C@](C)(CO)CO2)COC1=O,x,i
CC1=C(C(=O)Nc2ccccc2)C(c2cccnc2)n2nc(-c3cccnc3)nc2N1 (configuration not stated),>57,i
COc1ccc(N(CC(=O)Nc2cc(C)ccc2C)S(=O)(=O)c2c(C)nn(C)c2C)cc1,x,i
O=C(c1cccc(F)c1)N1CCC2(CC1)CCN(c1cccc(-c3ccccc3)c1)CC2,x,i
Cc1ccc(OC(=O)CCC(=O)N2CCc3ccccc32)cc1,x,i
O=S(=O)(c1ccccc1)N1CCSC1c1ccco1 (configuration not stated),>57,i
Cc1ccc2c(c1)NCC(C(=O)NCc1ccccc1)O2 (configuration not stated),x,i
COc1cc(Cl)c(S(=O)(=O)N2CCOCC2)cc1Cl,i,i
O=C(CSc1ncc(-c2ccccc2)n1CC1CCCO1)N1CCCCC1 (configuration not stated),>57,i
O=S(=O)(/C=C/c1ccccc1)Nc1ccc(N2CCOCC2)cc1,x,i
N#Cc1c2n(cnc1=O)CCCCC2,x,i
CC1CN(c2nn3c(=O)c4ccccc4nc3c3ccccc23)CC(C)O1 (configuration not stated),u,i
COc1ccccc1-c1nc(-c2ccccn2)no1,x,i
COc1ccc(C2=Nn3c(nnc3-c3ccc(OC)cc3)SC2)cc1,>57,i
O=C(Nc1cccc(Cl)c1)N1CCN(C/C=C/c2ccccc2)CC1,x,i
Cc1ccccc1NC(=O)NCc1ccco1,>57,i
Nc1nc(CN2CCc3ccccc3C2)nc(Nc2ccccc2)n1,>57,i
COc1ccc2nc(COC(=O)c3ccco3)c(C(C)=O)[n+]([O-])c2c1,>57,i
CCOC(=O)c1sc(/N=C/Nc2nc(C)c(C(=O)OCC)s2)nc1C,>57,i
Cc1c(N(C)C(=O)c2ccco2)c(=O)n(-c2ccccc2)n1C,>57,i
COC(=O)c1c(NC(=O)c2nn(C)cc2Cl)sc2c1CCCC2,>26,x
O=C(CN1C(=O)C2C3C=CC(C3)C2C1=O)N1CC=C(c2ccccc2)CC1 (configuration not stated),>57,i
C=CCNC(=O)c1scc2c1CCCC2,>57,i
N=c1cc(C2(O)CCCCC2)n2c(nc3ccccc32)s1,1.1*,i
Cc1nc2cnc(Nc3ccccc3)nc2n(C[C@H]2CCCO2)c1=O,x,i
COc1ccc(C)cc1-n1nnnc1SCc1cn2ccsc2n1,>57,i
N#CC(C(=O)NC1CCCCC1)c1nc2ccccc2nc1N1CCN(c2ccc(F)cc2)CC1 (configuration not stated),>57,i
CCOC(=O)C1=C(c2ccccc2)N2CCS(=O)(=O)N=C2S1,>57,i
CCc1ccccc1NC(=O)COC(=O)C1CC(=O)N(c2ccc(F)cc2)C1 (configuration not stated),>57,i
COc1cccc(Cn2c(=O)cnc3cnc(N(C)C)nc32)c1,x,i
COCCNC(=O)COc1ccccc1Cl,x,i
COc1ccccc1CNc1nc2nc(C)c(Cl)c(=O)n2[nH]1,>57,i
CC(C)(C)C(=O)CSc1nc2ncc(Br)cc2[nH]1,>57,i
COc1ccccc1N1CCN(S(=O)(=O)CC23CCC(CC2=O)C3(C)C)CC1 (configuration not stated),>57,i
Cn1cnnc1SCC(=O)OCN1C(=O)c2ccccc2C1=O,>57,i
